VACV mCherry inh – qHTS for Stage-Specific Inhibitors of Vaccinia Orthopoxvirus: mCherry Reporter Primary qHTS; Vaccinia virus mCherry reporter infection, fluorescence; about a quarter of the inactives have no number; Potency, µM (top dose mostly 36.5 µM), for inactives: at the top dose activity change, negative = inhibition, actives largely listed as inhibitors; 0.63% of 310,000 active; active = well fitted inhibition curve with a large enough effect; inconclusive = small, poorly fitted or top-dose-only effect; inactive = no such curve, though single readings can be large or run the other way; tested in A549 cells; note: nearly all actives have a fitted effect of over 35% in size; inactives centre near -10
VACV Venus inh – qHTS for Stage-Specific Inhibitors of Vaccinia Orthopoxvirus: Venus Reporter Primary qHTS | AID 720580, 2013 | Potency, µM (series often up to 36.5 µM), for inactives: top-dose activity change, negative = inhibition, actives largely listed as inhibitors | 0.46% of 330,000 active | Vaccinia virus Venus reporter expression, fluorescence; active means well fitted inhibition curve with a large enough effect; inconclusive means small, poorly fitted or top-dose-only effect; inactive means no such curve, though single readings can be large or run the other way; tested in A549 cells; note: nearly all actives have a fitted effect of over 30% in size; inactives centre near -10
* marks the source's active call; other numbers are inactive results; i = inactive; ? = inconclusive; · = no result given; [ ] = remark or other dose. % is set by controls: 0 for no effect and ±100 for the full control effect; potency is the fitted concentration of half-maximal effect.

1: Cc1cccc(C(=O)O/N=C(\N)c2ccccn2)c1
2: Cc1cc(-c2cc(F)cc3c2OC(CNC(=O)[C@@H]2CCC(=O)N2)C3)ccc1F (some centres undefined)
3: CC1CCCN(c2ccc(C(=O)OCn3nnc4ccccc4c3=O)cc2[N+](=O)[O-])C1 (centres undefined)
4: C[C@@H]1COC(=O)[C@H](CC(=O)OC(C)(C)C)C/C=C\C[C@H](CC(=O)N(CCO)Cc2ccccc2)C(=O)N1
5: CCCc1nn(C)c(C(=O)Nc2ccc(C)c(C)c2)c1Cl
assay / entry | 1 | 2 | 3 | 4 | 5
VACV mCherry inh | i | -6.6% | -12.9% | i | -14.8%
VACV Venus inh | -1.0% | 9.1% | -12.2% | -25.9% | -3.1%

6: CC(C)Nc1ccc(-n2nc3ccccc3[n+]2[O-])cc1
7: Cc1cccc(C)c1OC(=O)Cc1ccccc1[N+](=O)[O-]
8: Cc1ccc(Cn2cccc(NC(=O)NCc3ccccc3)c2=O)cc1
9: CC[C@H]1CN2CCC1C[C@H]2[C@H](O)c1ccnc2ccc(OC)cc12 (some centres undefined)
10: COc1ccccc1NC(=O)N(C)C[C@@H]1Oc2ncc(Br)cc2C(=O)N([C@H](C)CO)C[C@@H]1C
assay / entry | 6 | 7 | 8 | 9 | 10
VACV mCherry inh | -9.1% | i | i | -14.4% | i
VACV Venus inh | -11.3% | -6.4% | -11.5% | -7.9% | -16.6%

11: CCOc1ccc(S(=O)(=O)N2CCCCC2)cc1NC(=O)CSCc1c(C)noc1C
12: CCN1CCc2c(sc(NC(=S)NC(=O)c3ccco3)c2C(N)=O)C1
13: Cn1cc(-c2cc3n(n2)CCC(=O)N3CC(=O)O)c2ccccc21
14: O=C1N[C@@H](Cc2ccccc2)COC(=O)[C@H](Cc2ccc(F)cc2)C/C=C\C[C@H]1CC(=O)N(CCO)Cc1ccccc1
15: CC(=O)Nc1c(Cl)cc2c(c1Cl)C(=O)c1ccccc1-2
assay / entry | 11 | 12 | 13 | 14 | 15
VACV mCherry inh | -18.1% | i | -3.9% | -9.0% | -18.4%
VACV Venus inh | -6.8% | 1.8% | 0.0% | ? | -10.5%

16: Cc1ccc(-c2cc(C(=O)NCCc3ccccc3)c3c(-c4ccc(C)cc4)[nH]nc3n2)cc1
17: Cc1onc(-c2ccccc2Cl)c1C(=O)Nc1ccccc1
18: CCCCn1nnnc1C(c1cc2ccccc2o1)N(C)CCc1ccccc1 (centres undefined)
19: CC1=C(C(=O)N(C)C)CC(CC(=O)NCCCCc2ccccc2)C(=O)N1CCC1=CCCCC1 (centres undefined)
20: Cc1cc(-c2nc3ccccc3s2)ccc1N
assay / entry | 16 | 17 | 18 | 19 | 20
VACV mCherry inh | ? | · | -3.0% | i | -21.6%
VACV Venus inh | ? | -17.4% | -0.7% | ? | -18.7%

21: Nc1nc(N)nc(-c2cccc(Br)c2)n1
22: N#CCC(=O)N/N=C/c1ccc(N2N=C(c3ccccc3)CC2c2ccccc2)cc1 (centres undefined)
23: C=CCNC(=O)c1onc(CSc2cccc(C)c2)c1C(=O)O
24: O=C(O)COc1ccccc1C=NNC(=O)c1ccc(NS(=O)(=O)c2cccs2)cc1
25: CN(Cc1ccc2nonc2c1)Cc1nc(CC2CC2)no1
assay / entry | 21 | 22 | 23 | 24 | 25
VACV mCherry inh | i | ? | -12.0% | -12.3% | -1.8%
VACV Venus inh | -10.3% | 112.6%[activator] | -0.7% | -5.9% | -4.3%

26: CC(C)CN1C(=O)N(c2ccc(Cl)cc2)C(C)(O)CC1(C)C (centres undefined)
27: COc1ccccc1CC(=O)NC(=O)c1ccccc1O
28: Cc1ccc2c(CC(=O)N3CCc4ccccc43)coc2c1
29: Nc1ncnc2c1ncn2[C@@H]1O[C@H](CNS(=O)(=O)c2cc(S(=O)(=O)c3ccccc3)cs2)[C@@H](O)[C@H]1O
30: O=C(Nc1ccc(-c2nnc3n2CCCCC3)cc1)c1cc2ccccc2o1
assay / entry | 26 | 27 | 28 | 29 | 30
VACV mCherry inh | ? | -11.7% | -10.7% | i | i
VACV Venus inh | 4.3% | -18.2% | -10.3% | 0.4% | -4.1%

31: Cc1ccccc1Nc1nnc(-c2ccc(C)c(S(=O)(=O)N3CCOCC3)c2)c2ccccc12
32: O=C(Nc1ccc2nc(SCC(=O)N3CCc4ccccc43)sc2c1)c1cccc(Cl)c1
33: COc1ccc([N+](=O)[O-])cc1NC(=O)Cc1ccc(Cl)cc1
34: COc1ccc(C=NNc2nc3c([nH]2)c(=O)n(C)c(=O)n3C)cc1
35: CCn1cc([N+](=O)[O-])nc1C
assay / entry | 31 | 32 | 33 | 34 | 35
VACV mCherry inh | -1.7% | -3.5% | -20.8% | -14.2% | -8.3%
VACV Venus inh | -13.4% | -10.2% | ? | -3.3% | -7.5%

36: COC(=O)C1=C(C)N=C2SCCC(=O)N2C1c1cccs1 (centres undefined)
37: O=C(Nc1ccc(Cl)cc1)c1csc([C@H]2C[C@H](O)[C@@H](CO)O2)n1
38: O=C(CN1CCCCC1)n1c2ccccc2c2ccccc21
39: COc1ccc2c(c1)CCc1c(C(=O)Nc3c(C)nn(Cc4ccc(Cl)c(Cl)c4)c3C)noc1-2
40: Cc1cccc(C)c1NC(=O)Cn1c(=O)n(CCCS(=O)(=O)C2CCCCC2)c(=O)c2ccccc21
assay / entry | 36 | 37 | 38 | 39 | 40
VACV mCherry inh | -5.0% | -13.0% | -6.3% | -9.2%[7.34 µM] | -12.9%
VACV Venus inh | 7.2% | -27.2% | -4.5% | -9.0%[7.34 µM] | -10.2%

41: CCOC(=O)COc1ccc2c(C)cc(=O)oc2c1C(=O)c1ccccc1
42: CCCCc1ccc(-n2nc3cc(C)c(NC(=O)c4ccc(C#N)cc4F)cc3n2)cc1
43: O=C(Cn1nnc2ccccc2c1=O)N[C@@H](Cc1c[nH]c2ccccc12)C(=O)O
44: Cc1ccc(-n2c(C)n[nH]c2=S)cc1
45: COc1ccc(CNC(=O)C2CCN(c3nc4ccc(C)cc4[nH]3)CC2)cc1
assay / entry | 41 | 42 | 43 | 44 | 45
VACV mCherry inh | -9.2% | -13.3% | i | -10.7% | -7.0%[7.34 µM]
VACV Venus inh | -10.4% | -5.3% | -3.9% | -15.8% | -10.5%[7.34 µM]

46: O=C1C(=O)N(CCO)C(c2cccc(F)c2)/C1=C(\O)c1ccc(Cl)cc1 (centres undefined)
47: Cc1ccc(NC(=O)COC(=O)c2ccc([N+](=O)[O-])o2)cc1S(=O)(=O)N1CCCCC1
48: CCOc1ccc(CCN2C(=O)C(=O)N([C@@H](CC(C)C)CN3CCC[C@H]3CN3C(=O)C(=O)NC[C@@H]3Cc3ccccc3)C[C@@H]2Cc2ccccc2)cc1
49: CCc1nc2scc(-c3ccccc3)c2c(=O)n1N
50: CCc1ccccc1N1C(=O)CN(S(=O)(=O)CC)CC1(C)C(=O)NC1CCCCC1 (centres undefined)
assay / entry | 46 | 47 | 48 | 49 | 50
VACV mCherry inh | -8.3% | i | ? | · | -2.6%
VACV Venus inh | -8.7% | -2.7% | -29.3% | -17.1% | -0.8%

51: O=C(Cc1ccccc1)NCC(=O)N1CCCC1
52: O=C(O)CC1SC(=O)N(Cc2ccccc2)C1=O (centres undefined)
53: COc1ccc(CCNC(=O)CN2C(=O)NC3(CCCCC3C)C2=O)cc1 (centres undefined)
54: O=C(c1cc2cc(F)ccc2[nH]1)N1CCCC(Nc2ccc(F)cc2)C1 (centres undefined)
55: O=C(CSc1nc2ccccc2c(=O)n1Cc1ccco1)c1ccccc1
assay / entry | 51 | 52 | 53 | 54 | 55
VACV mCherry inh | -22.5% | -2.0% | -21.3% | -21.7% | -3.3%
VACV Venus inh | -3.4% | -4.4% | -0.2% | -11.5% | -13.0%

56: CCNc1nc(NCC)nc(OCC(=O)O)n1
57: O=C(CN1C(=O)c2ccccc2C1=O)NC1CCS(=O)(=O)C1 (centres undefined)
58: Cc1c(NC(=O)C2CCCN2S(=O)(=O)c2cccc3nsnc23)cccc1C(=O)O (centres undefined)
59: CCCCC(=O)Nc1ccc(C(=O)N2CCN(C)CC2)cc1
60: COc1ccc(C(=O)N2CCN(C(=O)c3ccc(-c4ccccc4)cc3)CC2)cc1OC
assay / entry | 56 | 57 | 58 | 59 | 60
VACV mCherry inh | 0.2% | i | i | 1.8% | -11.9%
VACV Venus inh | 9.9% | -5.6% | -18.7% | -4.2% | -31.9%

61: CCOC(=O)C1=C(c2ccccc2)NC(=S)NC1c1cc([N+](=O)[O-])ccc1OC (centres undefined)
62: COc1cc(OC)c(NC(=O)c2c(C)oc3nc(C)nc(N4CCOCC4)c23)cc1Cl
63: COc1cc(/C=C2\CCC(C3CCCC3)C2=O)ccc1OC(C)C (centres undefined)
64: CCN1CCN(C(=O)/C=C/c2ccc(OC)cc2)CC1
65: COc1ccc(CN(C)C(=O)c2ccc(Oc3ccccc3)cc2)cc1F
assay / entry | 61 | 62 | 63 | 64 | 65
VACV mCherry inh | · | i | i | -8.5% | -22.1%
VACV Venus inh | -13.0% | -10.3% | -13.7% | -6.5% | -10.6%

Quoted at random: seven records from the list.
52: O=C(O)CC1SC(=O)N(Cc2ccccc2)C1=O (centres undefined)
47: Cc1ccc(NC(=O)COC(=O)c2ccc([N+](=O)[O-])o2)cc1S(=O)(=O)N1CCCCC1
58: Cc1c(NC(=O)C2CCCN2S(=O)(=O)c2cccc3nsnc23)cccc1C(=O)O (centres undefined)
59: CCCCC(=O)Nc1ccc(C(=O)N2CCN(C)CC2)cc1
8: Cc1ccc(Cn2cccc(NC(=O)NCc3ccccc3)c2=O)cc1
60: COc1ccc(C(=O)N2CCN(C(=O)c3ccc(-c4ccccc4)cc3)CC2)cc1OC
42: CCCCc1ccc(-n2nc3cc(C)c(NC(=O)c4ccc(C#N)cc4F)cc3n2)cc1
assay / entry | 52 | 47 | 58 | 59 | 8 | 60 | 42
VACV mCherry inh | -2.0% | i | i | 1.8% | i | -11.9% | -13.3%
VACV Venus inh | -4.4% | -2.7% | -18.7% | -4.2% | -11.5% | -31.9% | -5.3%

Later entries
66: Nc1ccccc1SCc1cn2ccccc2n1
67: COc1ccc(-c2cc3nc(NCCCN(C)C)n(C)c(=O)c3s2)cc1OC
68: O=S(=O)(Nc1nc2n(n1)C(c1ccccc1)C=C(c1ccc(Cl)cc1)N2)c1ccccc1 (centres undefined)
69: CCOCCCNCC(=O)Nc1ccc(OC(F)(F)F)cc1
70: CCOC(=O)c1cccc(NC(=O)N[C@@H](C)C(=O)OC)c1
assay / entry | 66 | 67 | 68 | 69 | 70
VACV mCherry inh | i | 4.3% | -3.6%[7.34 µM] | -13.9% | ·
VACV Venus inh | -15.3% | -9.8% | -1.0%[7.34 µM] | -8.9% | -7.5%

71: COc1ccc2c(c1)c(C(=O)CN1CCC3(CC1)OCCO3)c(C)n2C
72: O=C(COc1ccc2c(c1)CCC2)NCc1cccc(Cl)c1
73: CCCCn1c(N)c(N(CC(C)C)C(=O)c2cc(-c3ccc(F)cc3)nc3ccccc23)c(=O)[nH]c1=O
74: Cc1oc(-c2ccc(Cl)cc2)nc1CN1CCC(C(=O)NCC2CCCO2)CC1 (centres undefined)
75: O=C(NC1CCN(Cc2ccccc2)CC1)c1cn(-c2ccccc2)nc1-c1cccnc1
assay / entry | 71 | 72 | 73 | 74 | 75
VACV mCherry inh | · | -6.6% | -12.8% | -5.0% | ?
VACV Venus inh | -0.8% | 1.9% | 5.4% | -12.0% | ?

76: O=C1CC(C(=O)N2CCc3ccccc32)CN1c1ccccc1 (centres undefined)
77: O=C(Nc1ccc(S(=O)(=O)N2CCCC2)cc1)c1ccc(Br)o1
78: CN1C(=O)CCC(CCC(=O)O)(c2ccccc2O)C1=O (centres undefined)
79: O=C(Cc1n[nH]c(=O)c2ccccc12)NC(c1ccccc1)c1ccccc1
80: Cc1cc(C)c2oc(=O)cc(CN3CCOCC3)c2c1
assay / entry | 76 | 77 | 78 | 79 | 80
VACV mCherry inh | i | -8.7% | -23.0% | 14.6%[7.34 µM] | -5.4%[1.46 µM]
VACV Venus inh | 0.0% | -10.5% | -5.0% | 0.0%[7.34 µM] | -4.2%

81: CC(=O)c1ccc(S(=O)(=O)Nc2ccc(C(=O)N3CCC3)cc2)cc1
82: Cc1cc(NC(=O)COc2ccc3ccccc3c2)no1
83: COc1cc2[nH]c3c(N4CCN(c5ccc(Cl)cc5)CC4)ncnc3c2cc1OC
84: COc1ccc(NC(=O)CS(=O)(=O)c2cccc(Cl)c2)cc1
85: Fc1ccccc1N1CCN(c2ncc3c(n2)CCN(Cc2cc(Br)cs2)C3)CC1
86: O=C(Cn1cc([N+](=O)[O-])cn1)NCc1ccccc1Cl
87: COC(=O)c1ccc(C)c(NC(=O)COC(=O)C2CC3CCCC(C2)C3=O)c1 (centres undefined)
88: Cc1csc(NC(=O)CSc2nc(C(C)C)nc3ccccc23)n1
assay / entry | 81 | 82 | 83 | 84 | 85 | 86 | 87 | 88
VACV mCherry inh | i | -23.6% | -13.3% | i | -14.1% | i[7.34 µM] | i | -8.5%
VACV Venus inh | -13.7% | 2.2% | ? | -2.0% | -18.1% | -7.4%[7.34 µM] | -15.9% | -23.7%
